Bioassay records deposited in PubChem BioAssay by several laboratories.
VCAM-1 up = boosters of cytokine-driven VCAM-1 levels – cell-based, plate reader, pooled HUVEC, TNFa stimulus (AID 455); HUVEC TNFa-induced VCAM-1 immunofluorescence, plate reader; numbers were filed only for top-ranked candidate wells; augmentation, % at 5 µM; 10,000 tested, 0.2% active;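 active = a compound raising TNF-alpha-driven VCAM-1 surface staining, with its hit status upheld on visual or statistical review; inactive = the rest, including hits rejected on review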;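 also: 0% = TNFa with vehicle and 100% = strongest image-checked hit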
Proteasome disasm = blocks ATP-dependent breakdown of the yeast 26S proteasome. anti-FLAG beads, GFP-proteasome disassembly, flow cytometry. inhibition of disassembly, % (concentration not given with the values). 24,000 tested, 0.2% active;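 active = above 40%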;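 also: plate controls were ATP control with full disassembly for no effect and ATP-gamma-S intact proteasomes for full effect; higher percent means more bead fluorescence retained so stronger block of disassembly; stock transfer was 100 nL into about 10 µL; wells with too few beads may also be inconclusive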
* = called active by the depositor; i = inactive; x = not tested or not shown.

SMILES	VCAM-1 up	Proteasome disasm
Nc1sccc1C(=O)c1ccccc1	i	0.7
O=c1c2oc3ccccc3c2ncn1Cc1ccccc1F	x	-0.4
Cc1cc(C)n(C(=O)CCNC(=O)c2ccccc2Br)n1	x	0.2
CCN(CC)C(=O)C1CCC(CNS(=O)(=O)c2cccc3cccnc23)CC1 (configuration not stated)	i	0.6
O=C(c1ccccc1)c1ccc2nc(N3CCN(C(=O)c4ccco4)CC3)c3nncn3c2c1	x	1.1
CN(Cc1ccccc1)S(=O)(=O)c1ccc(C(=O)Nc2nnc(C3CC3)o2)cc1	x	-1.6
Cc1ccc(-c2nc3cccnc3s2)cc1NC(=O)c1ccco1	x	-1.6
COc1ccc(S(=O)(=O)Nc2ccc3c(c2)OCO3)cc1Cl	i	-2.5
O=c1c2ccccc2nc(SCc2cn3ccsc3n2)n1-c1ccc(F)cc1	i	0.3
CCOc1ccc(NC(=O)CCN2CCN(S(=O)(=O)c3cc(Cl)ccc3OC)CC2)cc1	x	-0.1
Cc1cc(C)c(C#N)c(SCC(=O)Nc2ccc(S(=O)(=O)Nc3onc(C)c3C)cc2)n1	i	0.8
O=C1c2ccccc2NC(c2ccc3c(c2)OCO3)N1O (configuration not stated)	x	-0.8
CCOC(=O)N1CCN(C(=O)c2ccc3nc(N4CCC(C)CC4)sc3c2)CC1	x	-0.9
Cc1nc2nc(C)c(CCC(=O)N3CCOCC3)c(C)n2n1	x	0.3
CC1(C)NC(=O)N(CCCOc2ccc(Br)cc2Cl)C1=O	i	0.2
Cc1ccc(S(=O)(=O)c2nc(-c3ccc(F)cc3)oc2SCC(=O)NCC2CCCO2)cc1 (configuration not stated)	x	-0.8
CCOC(=O)C(C)Sc1nnc(CNC(=O)c2ccc(OC)cc2)n1C1CCCCC1 (configuration not stated)	x	2.1
Cc1cc(NC(c2cccnc2)c2c(C)[nH]c3ccccc23)no1 (configuration not stated)	i	1.2
O=C(NCc1ccc2c(c1)OCO2)c1ccc(CS(=O)(=O)c2cccc(C(F)(F)F)c2)o1	x	2.1
CC(C)(CSc1nncn1N)NS(=O)(=O)c1ccc(Cl)cc1	i	-1.2
O=C(c1cc(-c2ccc(O)cc2)on1)N1CCc2ccccc2C1	x	-1.6
O=C(CN(CC1CCCO1)S(=O)(=O)c1ccc(S(=O)(=O)NC2CC2)cc1)Nc1ccccc1 (configuration not stated)	i	3.3
CCOC(=O)c1ccc(NC(=O)CCc2c(C)nc3ncnn3c2C)cc1	i	0.3
CCCc1nnc(NC(=O)CN2C(=O)C3C4C=CC(C4)C3C2=O)s1 (configuration not stated)	x	-2.6
COc1ccc(-n2ncc3c(NCc4ccc5c(c4)OCO5)ncnc32)cc1	i	-0.6

Next section; the last four above are carried over.
SMILES	VCAM-1 up	Proteasome disasm
O=C(CN(CC1CCCO1)S(=O)(=O)c1ccc(S(=O)(=O)NC2CC2)cc1)Nc1ccccc1 (configuration not stated)	i	3.3
CCOC(=O)c1ccc(NC(=O)CCc2c(C)nc3ncnn3c2C)cc1	i	0.3
CCCc1nnc(NC(=O)CN2C(=O)C3C4C=CC(C4)C3C2=O)s1 (configuration not stated)	x	-2.6
COc1ccc(-n2ncc3c(NCc4ccc5c(c4)OCO5)ncnc32)cc1	i	-0.6
Cc1cc(Oc2ccc(Cl)cc2)nc(-c2ccccc2O)n1	i	0.4
O=C(NCCC1=CCCCC1)C1CCN(S(=O)(=O)c2cccc3nonc23)CC1	x	0.9
Cc1nc2sc(C(c3cccc(F)c3)N3CCCCC3)c(O)n2n1 (configuration not stated)	i	0.4
CCn1cnc2cc(NCc3cccc(OC)c3O)ccc21	i	0.2
Cc1ccc(C(=O)NCc2ccc3c(c2)OCO3)cc1S(=O)(=O)N1CCCCC1	i	-1.3
CCCCCNC(=O)c1ccc2c(=O)n(CC3CCCO3)c(=O)[nH]c2c1 (configuration not stated)	x	-2.2
Cc1noc(C)c1S(=O)(=O)N1CCN(C(c2ccccc2)c2ccc(Cl)cc2)CC1 (configuration not stated)	x	0.5
O=C(NC1CCCC1)c1csc2c1CCCC2	x	-1.7
O=C(NCC(c1cccnc1)N1CCN(c2ccc(F)cc2)CC1)OCc1ccccc1 (configuration not stated)	i	3.5
CCC(=O)Nc1c2c(nn1-c1cccc(Cl)c1)CSC2	x	0.7
Cc1cc(O)c(C2(C(F)(F)F)NCCNC2=O)cc1C (configuration not stated)	i	-0.3
COc1ccc(CCNC(=O)CN(c2ccccc2OC)S(C)(=O)=O)cc1	i	-1.6
CCC(=O)N1CCc2cc(S(=O)(=O)NCCC(=O)N3CC=C(c4ccccc4)CC3)ccc21	x	-1.3
O=c1cc(CO)oc(CN2CCN(c3ccccc3F)CC2)c1O	x	-2.5
CCCNS(=O)(=O)c1ccc(C(=O)NCC2CCCO2)cc1 (configuration not stated)	i	-0.4
NC(=O)C1(N2CCCCC2)CCN(C(=O)c2ccccc2)CC1	x	-0.5
CC(C)CC(NC(=O)C(CC(C)C)NC(=O)OC(C)(C)C)C(=O)O (configuration not stated)	x	-1.0
CC1Cc2ccccc2N1S(=O)(=O)c1cnc[nH]1 (configuration not stated)	x	3.5
Cc1cc2cc(CN3C(=O)c4ccccc4C3=O)ccc2[nH]1	x	-0.8
COC(=O)c1cc(NC(=O)CCc2c(C)nc3ncnn3c2C)cc(C(=O)OC)c1	x	-1.0
CCOc1ccc(-c2cc(CCCC(=O)NCCCOC)no2)cc1	x	-0.2
O=C1c2ccccc2C(O)N1Cc1ccccc1 (configuration not stated)	x	-3.5
CN(CC(=O)N1CC=C(c2ccccc2)CC1)S(=O)(=O)c1ccc2c(c1)c(=O)n(C)c(=O)n2C	x	-0.9
CCOC(=O)C1CCN(C(=O)COc2ccc(S(=O)(=O)NC(C)C)cc2Cl)CC1	i	-0.5
CC1CC(C)CN(CCCNC(=O)c2ccc(CS(=O)(=O)Cc3ccccc3F)o2)C1 (configuration not stated)	x	0.8

As entered above:
NC(=O)C1(N2CCCCC2)CCN(C(=O)c2ccccc2)CC1 in Proteasome disasm is entered as -0.5
O=c1cc(CO)oc(CN2CCN(c3ccccc3F)CC2)c1O in Proteasome disasm is entered as -2.5

Additional compounds follow.
SMILES	VCAM-1 up	Proteasome disasm
COc1ccc(N2C(=O)CCC(C(=O)N(C)C3CCCCC3)C2c2ccc(OC)c(OC)c2)cc1 (configuration not stated)	x	-1.2
COc1ccc(C2/C(=C(/O)c3ccccc3)C(=O)C(=O)N2C)cc1 (configuration not stated)	i	-0.1
COc1ccc2c(c1)C(=O)N(c1ccccc1OC)C(=O)C2	i	1.3
COc1cc(C2=NOC(C(=O)Nc3ccc(C(C)=O)cc3)C2)cc(OC)c1OC (configuration not stated)	x	-0.5
Cc1ccc(NC(=O)CN(C)S(=O)(=O)c2cccs2)cc1F	x	2.7
Cc1ccc2oc(=O)c3cnn(CC(=O)Nc4ccccc4N4CCN(C)CC4)c3c2c1	x	3.6
CC(C)Oc1cc2oc(=O)c3c(c2cc1Cl)CCC3	i	-0.9
Cc1ccc(Cn2c(=O)n(Cc3ccco3)c(=O)c3ccccc32)cc1	x	-1.1
O=C(NCCc1ccccc1)C1CC(=O)N(C2CCCCCC2)C1 (configuration not stated)	x	-0.7
Cc1nc2nc(-c3cccnc3)nn2c(C)c1Cl	i	1.9
CCc1nc(N)c(C#N)c(-c2ccc(OC)c(OC)c2)c1C	i	0.4
COc1ccc(C2C(C(=O)OC3CCCCC3)=C(C)Nc3nnnn32)c(OC)c1OC (configuration not stated)	x	2.6
c1ccc(-c2nc3c4ccccc4nc(N4CCN(c5ccccn5)CC4)n3n2)cc1	x	0.6
Nc1nc2sc3c(c2c(=O)s1)CCCC3	i	-6.2
COc1ccc(CN2C(=O)CCC2(C)C(=O)NCc2cccnc2)c(OC)c1 (configuration not stated)	x	-2.2
CC1(C)NC(=O)N(CC(O)COc2cccc(F)c2)C1=O (configuration not stated)	i	-1.0
Cc1nc(NCc2ccccn2)c2ccccc2n1	i	28.3
Oc1c(CN2CCCCC2)cc(COCc2ccccc2)c2cccnc12	x	-1.7
O=C(CCCC(=O)N1CCN(c2ccccc2F)CC1)N1CCN(c2ccccc2F)CC1	x	-0.8
CCc1c(C(=O)Nc2ccc(OC)c(Cl)c2)[nH]c(C)c1C(C)=O	x	-0.1
COCCCNC(=O)CS(=O)Cc1nc(-c2cccc(OC)c2)oc1C (configuration not stated)	x	-2.4
Cc1cccc(C)c1NS(=O)(=O)c1c(C)[nH]c(=O)[nH]c1=O	x	-0.1
Cn1c(C(=O)NCCN2CCCCCC2)cc2c(=O)n(C)c3ccccc3c21	x	0.0
Cc1c(C(=O)NCC2CCCO2)oc2ccc(S(=O)(=O)N3CCCCC3)cc12 (configuration not stated)	x	-0.7
CC(C)CCNC(=O)C1CCN(C(=O)N(C)C)CC1	i	-0.3
(more compounds)
SMILES	VCAM-1 up	Proteasome disasm
Cc1ccc(-c2noc(CCC(=O)NC3CCN(Cc4ccccc4)CC3)n2)cc1	x	1.3
C/C=C(/C(=C/C)c1ccc(O)cc1)c1ccc(O)cc1	i	0.7
CCOC(=O)CN1C(=O)C(O)(CC(=O)c2ccccn2)c2ccccc21 (configuration not stated)	x	0.7
Cc1cnn(-c2nc(-c3cccs3)cc(C(F)(F)F)n2)c1	x	0.6
CCOC(=O)C1CCCN(CC(=O)NC2CC2)C1 (configuration not stated)	i	-0.9
Cc1onc(-c2ccccc2)c1C(=O)NCCN1CCOCC1	56.4	-2.5
CCOc1ccccc1C(=O)NCCCN1CCN(CCCNC(=O)c2ccccc2OCC)CC1	x	1.4
COc1ccc(-n2c(Cc3cccn3C)nnc2SCC(=O)NCc2ccccc2Cl)cc1	x	-0.4
O=C(c1ccco1)N1CCN(C(=O)C2CCN(S(=O)(=O)c3cnc[nH]3)CC2)CC1	x	-1.9
COc1ccc(Cn2nnnc2C(c2cccnc2)N2CCN(c3ccc(O)cc3)CC2)cc1 (configuration not stated)	i	-2.4
O=C(C1CCCN(S(=O)(=O)c2cccnc2)C1)N1CCN(c2ccccn2)CC1 (configuration not stated)	i	-0.6
CCOc1cccc(C(=O)N(Cc2ccco2)C2CCS(=O)(=O)C2)c1 (configuration not stated)	i	4.0
Cc1cc(C)c2nc(N)sc2c1	i	-2.7
CCC(NS(=O)(=O)c1ccc(C)cc1)C(=O)O (configuration not stated)	x	1.0
CN(CCNC(=O)c1cn(C)c2ccc(S(=O)(=O)N(C)C)cc2c1=O)CCc1ccccc1	x	13.9
CCC(C)NC(=O)C1CCC(=O)N(c2ccc3c(c2)OCO3)C1c1ccc(OC)cc1 (configuration not stated)	x	-0.3
CCCCn1cnc2c(cnn2-c2ccc(Cl)cc2)c1=O	i	-1.0
C=CCn1c(=O)n(CCOC)c(=O)c2sc3ccccc3c21	i	0.2
COc1ccc(CNC(=O)c2noc3c2CCCC3)cc1	x	-0.7
Cn1c2c(c(=O)n(C)c1=O)CN(Cc1ccc(F)cc1)CN2	x	1.6
Cc1nn(C)c(C)c1S(=O)(=O)N1CCC(C(=O)NC2CCCc3ccccc32)CC1 (configuration not stated)	x	1.0
COC(=O)C1C(=O)C2=C(CC1C)NC(=O)CC2c1ccccc1 (configuration not stated)	i	1.2
Cc1ccc(CCN2CC(C(=O)NCCCN3CCCCCC3)CC2=O)cc1 (configuration not stated)	x	8.3
c1ccc(Cn2nnnc2C(c2cccs2)N2CCSCC2)cc1 (configuration not stated)	i	0.2
c1ccc2c(c1)nc(N1CCN(C3CCCCC3)CC1)c1nnnn12	x	0.2
Next entries follow.
SMILES	VCAM-1 up	Proteasome disasm
CCc1ccccc1N(CC)C(=O)c1cn(C)c(=O)c2cc(OC)c(OC)cc12	x	1.4
Cc1c(C(=O)N2CC(C)OC(C)C2)sc2nc(-c3ccccc3)cn12 (configuration not stated)	x	0.7
CN(Cc1ccccc1)C(=O)c1ccc2c(c1)OCO2	i	-0.3
COc1ccc(-n2nnc3c(=O)n(Cc4cc(C)ccc4C)cnc32)cc1	x	2.8
COC(=O)CSc1nnc(-c2cccs2)n1-c1ccc(Cl)cc1	i	1.7
CCOC(=O)C1CCN(Cc2cnc(NC(=O)OC)s2)CC1	x	-0.2
O=C(NC1CCCC1)C1CCCN(S(=O)(=O)c2cnc[nH]2)C1 (configuration not stated)	x	0.6
CCOC(=O)N1CCN(S(=O)(=O)c2cc(Cl)ccc2Cl)CC1	i	-1.0
COc1ccc(NC(=O)c2c(SC)nsc2SC)cc1	x	1.2
O=C(CCN1C(=O)c2ccncc2C1=O)Nc1ccc2c(c1)OCCO2	x	-1.0
Cc1c(NC(=O)c2nn(C)c(=O)c3ccccc23)c(=O)n(-c2ccccc2)n1C	i	-1.2
CN1CCc2c(sc3c2c(=O)n(-c2ccccc2)c2nnc(SCc4ccc(F)cc4)n32)C1	i	7.6
O=C(OCc1nnc(-c2ccc(Cl)cc2)o1)c1ccc(=O)n(Cc2ccccc2)n1	i	-1.1
CCCNC(=O)CS(=O)(=O)Cc1nc(-c2ccccc2C)oc1C	x	-0.3
CCOC(=O)N1CCN(C(=O)c2cc(S(=O)(=O)N3CCCC3)cn2C)CC1	x	0.7
CC(C)CN(CC(C)C)C(=O)C12CCC(C)(C(=O)C1)C2(C)C (configuration not stated)	i	-4.4

Complete entries, looked up by structure. Order of screens: VCAM-1 up | Proteasome disasm
Listed for O=C(CCN1C(=O)c2ccncc2C1=O)Nc1ccc2c(c1)OCCO2 → x | -1.0
Listed for Cc1c(NC(=O)c2nn(C)c(=O)c3ccccc23)c(=O)n(-c2ccccc2)n1C → i | -1.2
Listed for COC(=O)CSc1nnc(-c2cccs2)n1-c1ccc(Cl)cc1 → i | 1.7
Listed for Cc1c(C(=O)N2CC(C)OC(C)C2)sc2nc(-c3ccccc3)cn12 (configuration not stated) → x | 0.7
Listed for CN(Cc1ccccc1)C(=O)c1ccc2c(c1)OCO2 → i | -0.3

This is a subset, so the mix of outcomes need not match the whole.
